# XIAP antagonists: small molecules displacing peptide from XIAP – biochemical, IAP family, fluorescence polarization (AID 1018) | XIAP BIR domain, fluorescence polarization peptide displacement; higher % means a stronger effect | displacement, % at 20 µM; hits with a dose series show IC50 in µM | 200,000 compounds, 0.007% hits; in the data active means displacement above about 50%; further: a part of the inactive calls stands beside numbers as strong as those of hits
# K1F lysis inhibition: protection from phage-mediated lysis, alamar blue read-out – E. coli UTI89, K1F phage, bacterial capsule biogenesis inhibitors (AID 488966) | E. coli UTI89 K1F phage lysis, alamar blue, 2 h; higher % means a stronger effect | inhibition, % at 100 µM, or IC50 in µM where a hit was titrated | 340,000 compounds, 0.02% hits;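 active means phage lysis inhibition, versus mean bacterial control, above a set limit; inconclusive means no clear call, values can overlap the other calls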;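 further: capsule biogenesis inhibitors block K1F phage lysis so surviving cells raise fluorescence; higher fluorescence means more inhibition of phage lysis; actives were called in the ten point dose series up to 300 µM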
# Hep lipid drop: modulators of hepatic lipid droplet formation | AML12 mouse hepatocytes, oleate lipid droplets, BODIPY imaging | inhibition, % at 6.5 µM | 240,000 compounds, 0.4% hits | AID 1656;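 active means lipid droplet intensity inhibited by at least 50%, with more than 500 cells counted; inconclusive means wells with under 300 cells, treated as cytotoxic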
#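 Assay system: AML12 hepatocytes (mouse); Probe or stimulus: oleic acid at 100 µM to induce lipid droplet formation; Dosing: compound at 6.5 µM only; Schedule: compound with oleate, overnight; Detection: fluorescence imaging, 20x objective, two fields per well; Measure: % inhibition of lipid droplet signal.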
# P. falciparum M17LAP: P. falciparum M17LAP inhibitors, primary screen, biochemical, fluorogenic H-Leu-NHMec substrate, 1536-well (AID 1619). 220,000 compounds, 0.38% hits. recombinant M17LAP, H-Leu-NHMec fluorogenic kinetic assay; higher % means a stronger effect. inhibition, % at 30 µM, or IC50 in µM where a hit was titrated;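 active means compound inhibiting the enzyme by more than half at any dose during confirmatory dose-response retesting; inconclusive means strong single-dose inhibitors picked by rank but not retested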;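 further: plate controls were full reaction with DMSO carrier for no effect and no enzyme background for full effect; strong numbers were not always called active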
# P. falciparum M1AAP: malaria alanyl aminopeptidase activity blockers – biochemical, fluorogenic H-Leu-NHMec substrate, 1536-well (AID 1445) | recombinant M1AAP, H-Leu-NHMec fluorogenic kinetic assay; higher % means a stronger effect | inhibition, % at 30 µM, or IC50 in µM where a hit was titrated | 220,000 compounds, 0.42% hits;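 active means primary inhibition above the hit cutoff, then over 50% inhibition at one or more dose response concentrations, cut at about 23% in these data, passing the limit was not always enough; inconclusive means conflicting primary data, or primary hits not chosen for dose response; inactive means low primary inhibition, or under 50% at every dose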;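 further: plate controls were DMSO full reaction for no effect and no enzyme background for full effect; strong numbers were not always called active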
# TNAP activators: stimulation of alkaline phosphatase TNAP activity – biochemical, luminescent, no phosphate acceptor, uHTS, primary screen (AID 1001); purified TNAP, luminescent activation assay, no phosphate acceptor; higher activation fold means a stronger effect; activation fold at 20 µM, or EC50 in µM where a hit was titrated; 200,000 compounds, 0.03% hits; in the data active means activation fold from about 3, or a potency from the dose series; inactive means the rest, 99 in 100 with activation fold below about 1.6; further: many of its hits are not listed in these tables
# Siah-1 displacement: Siah-1 peptide-binding antagonists, primary screen, biochemical, fluorescence polarization, rhodamine-plectin, uHTS (AID 1817). one-dose displacement, % at 20 µM; IC50 in µM for titrated hits. Siah-1 / rhodamine-plectin peptide fluorescence polarization; higher % means a stronger effect. 290,000 compounds, 0.02% hits;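 active means displacement of at least 50% at 20 µM, with a fluorescence ratio check between 0.3 and a set limit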;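 further: plate controls were Siah plus tracer with DMSO for no effect and tracer alone without Siah for full effect; strong numbers were not always called active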
# Hep lipid drop cells 6.5 µM: further read-out of Hep lipid drop, marked with its call; cell count; measured here: cell count, cytotoxicity flag;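 cells counted across two imaged fields per well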
# * marks the source's active call; other numbers are inactive results; i = inactive; u = inconclusive; x = not tested or not shown. These rows are one share of the data, so the mix of outcomes need not match the whole.
SMILES,XIAP antagonists,K1F lysis inhibition,Hep lipid drop,P. falciparum M17LAP,P. falciparum M1AAP,TNAP activators,Siah-1 displacement,others
Cc1ccc(-c2cc(N)n(-c3ccccc3)n2)cc1,-8.6%,0.1%,x,10.9%,13.9%,1.1,-3.4%,
CCc1ccccc1NC(=O)C(C)n1nc([N+](=O)[O-])c(Br)c1C (stereo not given),-5.1%,0.2%,x,-1.9%,3.2%,1.1,2.4%,
CCCCCCCC(=O)NNC(=O)CCC(=O)O,-3.4%,0.3%,x,-10.7%,-3.5%,1.1,-1.6%,
CCOC(=O)c1cnc2cc3c(cn2c1=O)CCCC3,-1.7%,0.0%,x,-105.3%,17.2%,1.1,1.9%,
C=CCNC(=O)c1cc(Cl)ccc1Cl,-7.5%,1.1%,x,8.5%,3.8%,1.1,-4.0%,
COc1ccc(NC(=O)c2c(C(F)(F)F)nn(C)c2SCc2ccccc2)cc1,-5.9%,0.8%,x,8.5%,22.6%,1,2.1%,
CCOc1ccc(C(=O)NN2C(=O)C3C4C=CC(O4)C3C2=O)cc1 (stereo not given),0.3%,0.5%,x,1.7%,6.5%,1.1,4.7%,
CCOC(=O)c1c(C)nc2sc3c(c2c1-c1ccc(OC)cc1)NC(c1ccc(OC)cc1)NC3=O (stereo not given),-1.1%,0.4%,x,-0.6%,-7.7%,1.1,-0.7%,
CCOC(=O)c1c(C)nc2sc3c(c2c1-c1ccc(OC)cc1)NC(c1ccccc1)NC3=O (stereo not given),-6.1%,1.1%,x,-11.8%,8.3%,1.1,-1.8%,
CSc1nc(-c2ccc(C)cc2)nc(C(Cl)Cl)n1,-2.2%,-1.2%,x,-8.0%,-2.0%,1,-0.4%,
N/C(=N\c1nc2c(c(=O)[nH]1)CCC2)Nc1ccccc1C(F)(F)F,-0.8%,2.9%,x,-3.7%,7.4%,1,0.9%,
Cc1nnc2c(Oc3ccccc3)nc3ccccc3n12,-2.4%,0.6%,x,5.2%,5.8%,1.1,0.4%,
Cc1ccc(OC(=O)c2cccc(C(=O)Oc3ccc(C)cn3)n2)nc1,-2.4%,x,x,-3.8%,-0.9%,1.2,-5.8%,
COc1cc(OC)nc(Oc2ccccc2C(=O)Oc2ccc(Cl)cc2)n1,-4.8%,-0.3%,x,-7.5%,-2.7%,1,5.1%,
Cc1c(NCc2cc(Cl)ccc2O)c(=O)n(-c2ccccc2)n1C,-4.9%,0.8%,x,-1.2%,8.4%,1.1,0.4%,
Cc1cc(N2C(=O)C(O)=C(C(=O)c3cccs3)C2c2cccc(O)c2)no1 (stereo not given),-23.9%,0.8%,x,10.1%,5.9%,1,0.2%,
COC(=O)N1N=C(c2ccccc2)CC1(O)C(F)(F)F (stereo not given),-1.1%,-1.0%,x,3.6%,-2.6%,1,1.0%,
CC(C)c1cc(Nc2cccc(O)c2)cc(C(C)C)c1O,-4.0%,x,x,x,x,0.8,-4.0%,
CCN(CC)CC(=O)c1c[nH]c2ccc(OC)cc12,-3.9%,-3.6%,x,7.7%,6.0%,1.1,-2.8%,
Cc1c(NC(=O)CCCOc2ccccc2)cccc1[N+](=O)[O-],-5.4%,3.6%,x,-1.1%,5.0%,1,-0.9%,
O=C(c1ccccc1)c1nn(-c2cccc(Cl)c2)c2nc(-c3ccccc3)cc(=O)n12,-5.2%,-0.4%,x,9.4%,-3.3%,0.9,2.3%,
CC(C)N=C(NC#N)SCc1ccc(Br)cc1,0.5%,0.3%,x,-3.8%,0.1%,1.1,7.4%,
Cc1ccc(N2C(=O)C3C4C=CC(C4)C3C2=O)cc1C (stereo not given),-2.6%,8.0%,x,5.6%,1.9%,1.2,0.6%,
NS(=O)(=O)c1ccc(CNC(=O)/C=C/c2ccccc2)cc1,-5.0%,0.3%,x,-5.7%,9.9%,0.9,-3.8%,
CCOc1ccc(/C=N/n2c(SC)nnc2-c2ccccc2)cc1OCC,-5.8%,-0.1%,x,12.0%,4.8%,1,-5.4%,
Cc1nnc(SCCCn2c(N3CCN(c4ccccc4)CC3)nc3c2c(=O)[nH]c(=O)n3C)s1,-4.0%,-0.2%,x,4.2%,-7.0%,1,1.0%,
Cc1[nH]n(-c2ccccc2)c(=S)c1C=Nc1cccc([N+](=O)[O-])c1,-1.3%,1.8%,x,2.8%,6.9%,1.1,4.7%,
Cc1ccccc1NC(=O)CSc1nnc(-c2ccccc2)n1-c1ccccc1,-2.4%,5.8%,x,-3.7%,7.4%,1.1,2.2%,
Cc1cccc(C)c1NC(=O)C(=O)NCc1ccccn1,-2.1%,0.0%,x,1.5%,0.8%,1,-0.2%,
O=C(/C=C/c1ccccc1Cl)NC(=S)Nc1ccccc1C(=O)NC1CCCCC1,-2.3%,0.0%,x,-4.1%,7.9%,1.1,-2.7%,
Cc1ccc(C(=O)Nc2cc3c(cc2Cl)OCCCO3)cc1,-3.3%,0.3%,x,-7.4%,0.1%,1.1,-0.3%,
CCN(/C=N/c1sc2c(c1C#N)CCCCC2)CC,0.3%,0.1%,x,-7.6%,11.7%,1.1,0.8%,
CCCCCOCC(O)CCC(=O)NN (stereo not given),-4.7%,1.0%,x,-0.8%,3.2%,1.1,-1.5%,
Cc1ccc(S(=O)(=O)CCc2nnc(N)s2)cc1,-2.2%,1.5%,x,3.6%,-3.3%,1,-3.7%,
COc1cccc(CNCCc2c[nH]c3ccccc23)c1OCc1ccccc1F,-1.7%,0.2%,x,-1.0%,2.7%,1,-0.2%,
N#Cc1ccc(CNc2cnccn2)cc1,-6.2%,2.4%,x,-39.7%,8.5%,1.1,4.0%,
O=C(CCCNC(=O)/C(=C/c1ccccc1F)NC(=O)c1ccccc1)OCc1ccccc1,-9.2%,-0.1%,-52.0,10.9%,3.6%,1,-1.2%,Hep lipid drop cells 6.5 µM=376
CCN1CCN(CCC(=O)Nc2cccc(OC)c2)CC1,-3.9%,0.1%,x,5.0%,4.1%,1,-0.7%,
Cc1ccccc1Nc1nnc(SCC(=O)NCc2ccco2)s1,-3.5%,0.6%,x,45.1%,6.6%,1.1,-1.4%,
Cc1cc(C(F)(F)F)nc(SCC(=O)NC2=NC(=O)C(C)S2)n1 (stereo not given),-2.4%,0.5%,5.6,2.7%,0.6%,1.2,2.6%,Hep lipid drop cells 6.5 µM=659
O=C(Nc1ccc(/C=C/c2nc3ccccc3o2)cc1)c1ccc(F)cc1,-1.3%,0.0%,x,-9.1%,7.6%,1.1,-1.5%,
CCOc1ccccc1C(=O)N1CCOCC1,-1.2%,-0.3%,x,-6.0%,0.6%,1.1,1.3%,
O=C(OCC(=O)N1CCOCC1)c1ccc(Cl)nc1,-0.9%,8.1%,x,1.7%,4.9%,1.1,-0.6%,
O=C(CCSc1ccc(Cl)cc1)N1CCCCCC1,0.0%,1.0%,x,4.5%,-1.1%,1.1,5.0%,
Cc1sc(NC(=O)c2ccccc2)c(C(=O)NCCN(C)C)c1C,-2.9%,0.4%,x,8.6%,3.2%,1.1,-0.7%,
CONC(=O)c1cc(OCC(F)(F)F)ccc1OCC(F)(F)F,-4.8%,0.2%,x,-8.8%,-1.8%,1,1.0%,
Cc1ccc(NC(=O)Cc2ncc(C(F)(F)F)cc2Cl)cc1Cl,-3.7%,-0.1%,x,3.3%,2.0%,1.1,-0.2%,
COC(=O)c1ccc(OCC2c3cc(OC)c(OC)cc3CCN2C(=O)c2ccco2)cc1 (stereo not given),-1.8%,0.6%,x,-5.4%,0.8%,1.1,1.3%,
Cc1cccc(-n2c(=O)c3c(n4cnnc24)-c2ccccc2CC32CCCCC2)c1,-6.7%,1.1%,x,0.8%,0.7%,0.9,1.1%,
CC(=O)c1cn(CC(=O)Nc2c(C)cccc2C)c2ccccc12,-6.1%,-0.3%,x,-6.5%,-1.4%,1.1,-1.7%,
C=C(C)c1cccc(C(C)(C)NC(=O)N2CCN(C/C=C/c3ccccc3)CC2)c1,-6.8%,0.0%,x,-0.4%,7.7%,1,-4.1%,
COc1ccc(C(=O)Nc2ccc(Cl)cc2C(=O)NCCN2CCOCC2)cc1,-1.4%,i,x,5.4%,0.5%,1.1,0.1%,
O=C1Nc2ccc(F)cc2C12Nc1ccccc1-c1nnc(SCc3ccccc3Cl)nc1O2 (stereo not given),-0.8%,-2.4%,x,12.9%,14.4%,0.9,-2.7%,
CCCCCCC(=O)Nc1ccc(C(=O)N/N=C/c2cccnc2)cc1,-3.5%,0.0%,x,12.6%,2.1%,1.9,1.5%,
Cc1cccc(C)c1NC(=O)CSc1nnc(-c2ccccc2)n1Cc1ccc2c(c1)OCO2,-6.0%,0.1%,x,-2.4%,-2.3%,1.1,-0.1%,
O=C(COC(=O)C1CCN(S(=O)(=O)c2cc([N+](=O)[O-])ccc2Cl)CC1)Nc1ncc(Cl)cc1Cl,-4.6%,0.1%,x,-6.5%,3.8%,1,-3.6%,
COc1ccc(Oc2coc3cc(OC(=O)c4cccs4)ccc3c2=O)cc1,-8.5%,0.4%,x,-6.6%,-6.6%,1.1,-0.5%,
Cc1cc(C(F)F)n2ncc(C(=O)O)c2n1,-3.1%,4.9%,x,-10.2%,4.7%,1,3.6%,
CCOC(=O)C1=C(C)N(Cc2ccccc2)C(=O)NC1c1ccc(OC)cc1 (stereo not given),-8.0%,0.9%,x,20.0%,4.1%,1.1,0.4%,
O=C(CCS(=O)(=O)c1ccc(Br)cc1)N1CCN(c2ccccc2F)CC1,0.8%,1.5%,-16.9,-3.4%,3.9%,1.1,0.3%,Hep lipid drop cells 6.5 µM=764

# Structural class: the entries above containing bromine (3)
SMILES,XIAP antagonists,K1F lysis inhibition,Hep lipid drop,P. falciparum M17LAP,P. falciparum M1AAP,TNAP activators,Siah-1 displacement,others
CCc1ccccc1NC(=O)C(C)n1nc([N+](=O)[O-])c(Br)c1C (stereo not given),-5.1%,0.2%,x,-1.9%,3.2%,1.1,2.4%,
CC(C)N=C(NC#N)SCc1ccc(Br)cc1,0.5%,0.3%,x,-3.8%,0.1%,1.1,7.4%,
O=C(CCS(=O)(=O)c1ccc(Br)cc1)N1CCN(c2ccccc2F)CC1,0.8%,1.5%,-16.9,-3.4%,3.9%,1.1,0.3%,Hep lipid drop cells 6.5 µM=764

# Later entries
SMILES,XIAP antagonists,K1F lysis inhibition,Hep lipid drop,P. falciparum M17LAP,P. falciparum M1AAP,TNAP activators,Siah-1 displacement,others
C/C(=N\Nc1nc(N)cc(Cl)n1)c1cccc([N+](=O)[O-])c1,-8.1%,1.0%,x,6.6%,6.6%,1.1,0.5%,
O=C(NCC(c1cccnc1)N1CCOCC1)Nc1ccccc1 (stereo not given),-2.4%,0.1%,x,8.3%,6.2%,1.1,2.8%,
Cc1ccc(C(=O)Nc2nccc(-c3cccs3)n2)cc1,-2.7%,0.3%,x,8.8%,9.8%,1.1,-1.2%,
CCc1ccc(-n2c(=O)c3c(C)c(C(=O)N(C)C)sc3n(CC(=O)NCc3ccco3)c2=O)cc1,-6.8%,4.5%,x,-9.4%,-2.5%,1.1,1.2%,
Cc1cc(N2CCCCC2)nc(NCc2ccccc2)n1,-3.7%,u,x,-2.8%,-2.9%,1,1.9%,
O=C(O)CSc1nc(C(F)(F)F)cc(=O)n1-c1ccccc1,-6.4%,-0.7%,x,-6.9%,-1.2%,1.1,1.0%,

# Screens from PubChem.
